# GLA inh pH 4.5: blocks human alpha-galactosidase A at pH 4.5; P06280; 230,000 tested, under 10 active; AID 1467; purified enzyme, 4-MU-alpha-Gal fluorescence, pH 4.5; activity change, negative = inhibition, % at 105 µM; inconclusive = small, poorly fitted or top-dose-only inhibition, or a rising curve; inactive = flat fitted curve, though single readings scatter; no compound was filed as active;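 also: 0% = full activity with enzyme and -100% = basal without enzyme; dose as in the result columns while the protocol names 77 µM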
# Target sequence (P06280 whole entry, looked up): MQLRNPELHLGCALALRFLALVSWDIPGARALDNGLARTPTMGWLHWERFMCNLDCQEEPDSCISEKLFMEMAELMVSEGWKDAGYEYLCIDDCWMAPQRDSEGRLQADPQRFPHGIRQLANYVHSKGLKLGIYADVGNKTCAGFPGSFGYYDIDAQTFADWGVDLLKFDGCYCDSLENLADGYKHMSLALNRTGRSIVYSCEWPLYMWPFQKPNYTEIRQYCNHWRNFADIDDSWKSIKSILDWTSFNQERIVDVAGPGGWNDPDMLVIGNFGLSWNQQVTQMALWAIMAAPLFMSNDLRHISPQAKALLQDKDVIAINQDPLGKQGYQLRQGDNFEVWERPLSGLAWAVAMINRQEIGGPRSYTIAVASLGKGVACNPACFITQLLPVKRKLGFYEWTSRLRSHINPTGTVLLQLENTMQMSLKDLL
# Rango release inh: inhibitors of RanGTP-induced Rango-importin beta complex dissociation. AID 540253. Biochemical FRET Rango-importin beta, RanGTP-induced dissociation. Potency, µM (titrated, usually from 46.1 µM), for the others: top-dose activity change, negative = inhibition. 340,000 compounds, 0.071% hits. O95149+P62826; active means falling FRET ratio curve, often poorly fitted, with flat reads before Ran was added; inconclusive means other falling curves, or compound fluorescence or quenching; inactive means flat or rising ratio curve;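 also: potency is read from the fitted curve at half-maximal effect; % of control where 0% means no effect; nearly all actives have a fitted effect of over 45% in size; -100% = wells without RanGTP and RCC1; the record marks most hits as doubtful in a second field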
#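 Rango (0.1 uM)–importin beta (0.25 uM) complex; RanGTP-RCC1 trigger; 45 min RT; CFP/YFP FRET read.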
# miR-21 FLuc: miR-21 reporter, rising signal; HeLa miR-21 FLuc reporter, luciferase, 48 h; Potency, µM (doses to about 38.3 µM), without a hit: top-dose reporter change, positive = more light; 340,000 tested, under 10 active; AID 2288; active = well fitted rising curve with a large enough effect; inconclusive = small, poorly fitted or top-dose-only effect; inactive = no such curve, though single readings can be large or run the other way;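 also: % of control where 0% means no effect; miR-21 action dims this reporter so a rising signal means less miR-21 action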
#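 Using DMEM plus 10% FBS, HeLa miR-21-FLuc cells are incubated with test compounds (final up to about 40uM) for 48 hours; firefly luciferase signal is then imaged following reagent-mediated lysis.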
# Rango-impB inh: prevents formation of the Rango-importin beta complex. Q14974. Rango CFP/YFP FRET sensor + importin beta, 45 min. Potency, µM (highest dose often 92.2 µM), without a hit: at the top dose inhibition of complex formation. 340,000 compounds, 0.031% hits; active = rising FRET ratio curve, often small or poorly fitted; inconclusive = mostly compound fluorescence or quenching in the first reads; inactive = flat curves in all reads;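 also: potency is read from the fitted curve at half-maximal effect; 0% = DMSO wells and 100% = buffer wells lacking importin beta; nearly all actives have a fitted effect of over 15% in size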
#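 FRET biosensor (snurportin 1 IBB flanked by EYFP and cerulean), 50 nM, with compound 5 min, then 0.125 microM importin beta in PBS, 1 mM DTT, 0.02% Tween-20, 0.1% BSA. CFP/YFP ratio read after 45 min at room temperature; pre-read flags interference.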
# * = called active by the depositor; ? = inconclusive; . = not tested or not shown; & = joins results of further samples.
Rango-impB inh,miR-21 FLuc,Rango release inh,GLA inh pH 4.5,molecule
-3.0%,-5.8%,-21.4%,-2.9,Cc1ccc(S(=O)(=O)N2CCN(C3CC(=O)N(CCc4ccccc4)C3=O)CC2)cc1C (configuration not stated)
-2.8%,-48.0%,4.9%,4.2,O=C(CSc1cccc[n+]1[O-])Nc1cc2c(cc1Cl)C(=O)c1ccccc1C2=O
4.1%,.,1.2%,.,CC(C)N(C(=O)CSc1ccc(S(=O)(=O)N2CCCCC2)cn1)c1ccccc1
6.6%,13.4%,-12.0%,.,OCCNc1nc(Nc2ccc(Cl)c(Cl)c2)nc2ccccc12
12.2%,-2.9%,7.9%,.,COc1cccc(CN2CC(C(=O)N3CCCCCC3)CCC2=O)c1 (configuration not stated)
-1.4%,-5.3%,-23.0%,-5.9,COc1ccc2c(c1)c(C(O)CN1CCC(Cc3ccccc3)CC1)c(C)n2C (configuration not stated)
0.9%,-2.3%,14.8%,-9.5,O=C(Nc1ccc(S(=O)(=O)Nc2ncccn2)cc1)c1cccc(S(=O)(=O)N2CCCC2)c1
-1.7%,-1.0%,-0.5%,.,Cc1cc(NCc2ccc(F)cc2)nc2cc(Cl)ccc12
5.1%,?,3.4%,-0.4,O=C(Nc1ccccn1)c1cc2ccccc2o1
?,3.7%,?,-1.2&-10.9,COC(=O)CCC(=O)OC1(C)C(=O)C=C2C=C(C3CC3)N(c3cccc(C#N)c3)C=C2C1=O (configuration not stated)
-3.5%,-0.1%,-19.7%,4.0,COc1ccc(NC(=O)NCCN2CCN(c3cccc(Cl)c3)CC2)cc1
-1.8%,-5.1%,16.6%,13.0,O=C(O)CSCc1ccc(Cl)cc1
1.9%,-4.7%,-21.8%,.,COC(=O)c1ccc(C2SCC(=O)N2Cc2ccccc2)cc1 (configuration not stated)
?,13.7%,4.3%,-2.9,C#CCNC(=O)C1=C[C@@H](c2ccc(Br)cc2)[C@H](CCCO)[C@@H](OCC)O1
-2.1%,1.7%,-4.1%,-5.2,CC(C)c1onc(C(=O)N2CCOCC2)c1[N+](=O)[O-]
0.9%,-15.7%,1.4%,-2.3,COCCN(C(=O)CC(C)(C)C)c1nnc(-c2cccnc2)s1
?,-12.8%,8.6%,-5.8,O=C(Nc1ccccc1OC(F)F)c1ccccc1
-2.3%,0.0%,1.0%,-7.1,CCOC(=O)c1cccc(NC(=O)CSc2nnc(C3CCCCC3)n2CC)c1
0.1%,.,5.0%,.,CCCN(Cc1nnc(-c2cccs2)o1)C(=O)CN1C(=O)NC2(CCC(C)CC2)C1=O (configuration not stated)
3.1%,-6.5%,8.1%,-0.4,N#Cc1ccccc1Cn1c(=O)n(CCC(=O)NCc2ccco2)c(=O)c2ccccc21
4.1%,-6.0%,4.6%,.,O=S(=O)(Nc1ncccn1)c1cc(Cl)ccc1Cl
-1.0%,-2.0%,19.3%,-18.0,O=C(CNC(=O)c1ccc(N2C(=O)c3ccccc3C2=O)cc1)OCC(=O)c1ccccc1
0.1%,-3.0%,-5.5%,4.6,O=C(C1=C[C@@H](C2CC2)C[C@@H](OCCCCO)O1)N1CCN(Cc2ccccc2)CC1
-0.2%,-4.1%,18.6%,.,O=C(Nc1ccccc1)/C(=C/c1cccnc1)NC(=O)c1ccccc1
1.0%,-1.5%,-10.8%,1.0,O=C(Cn1ccc2ccccc2c1=O)NCCC(=O)NC1CCN(Cc2ccccc2)CC1
-0.6%,-13.7%,-4.0%,-3.0,C/C(=N\NC(N)=O)c1ccc(Cl)cc1
5.5%,0.6%,0.9%,2.2,O=C(CN1CCN(c2ccc(Cl)cc2)CC1)NCc1cccs1
11.2%,19.9%,?,2.1,Cc1ccc(-c2[nH]nc(N)c2N=Nc2ccccc2C)cc1
-1.1%,.,-21.5%,.,Cc1ccc(CNC(=O)c2cc(-c3ccccc3C)n(CC3CC(c4cccc([N+](=O)[O-])c4)=NO3)n2)cc1 (configuration not stated)
-2.3%,-8.9%,15.7%,.,c1ccc(CNc2nc(-c3cccnc3)nc3ccccc23)cc1
3.6%,-3.5%,3.2%,.,Cc1cc(Cl)ccc1C(=O)C1CCCN(C(=O)CCn2cncn2)C1 (configuration not stated)
-9.9%,-7.9%,-8.0%,.,Cn1cnc2c1c(=O)n(Cc1cccc(Cl)c1)c(=O)n2C
5.1%,-2.1%,-14.1%,-9.5,O=C(CN1C(=O)c2ccccc2C1=O)Nc1ccc2c(c1)OCO2
0.2%,-2.5%,-8.2%,-1.2,Cc1noc(C)c1C(=O)OC(C)C(=O)Nc1ccc(S(=O)(=O)NC(C)C)cc1 (configuration not stated)
-0.5%,1.6%,-17.2%,7.7,COc1ccccc1/C=N/NC(=O)CNC(=O)c1ccc(S(=O)(=O)N(C)C)cc1
1.5%,-10.3%,-2.4%,3.2,COc1ccc(C(=O)NCC(=O)N/N=C/C=C/c2ccccc2)cc1OC
1.8%,-51.0%,-3.9%,-0.6,CCOC(=O)c1ccc(NC(=O)Nc2ccccn2)cc1
-0.7%,-32.5%,7.0%,-22.5,CCC(CC)c1nnc(NC(=O)c2ccco2)s1
1.9%,-2.6%,-4.9%,-0.7,Cc1cc(=O)oc2cc(OCC(=O)Nc3cccc(S(=O)(=O)N(C)C)c3)ccc12
-2.8%,-16.5%,7.9%,-1.4,CCOCCCNC(=O)c1ccc(N2CCCC2)c(NS(=O)(=O)c2ccc(C)cc2)c1
-3.0%,-3.3%,22.5%,-2.9,COc1ccc(CNC(=O)C(c2ccncc2)N(C(=O)Cc2cccs2)c2ccccc2)cc1 (configuration not stated)
0.3%,-39.4%,9.3%,8.6,CC1CCc2nc(NC(=O)CN3CCOCC3)sc2C1 (configuration not stated)
?,1.9%,3.4%,-4.7,N#Cc1c(Nc2ccc(F)cc2)sc(C(=O)c2ccccc2)c1N
3.9%,.,-3.6%,.,C[C@H](CO)N1C[C@H](C)[C@@H](CN(C)C(=O)Nc2ccccc2)Oc2c(NC(=O)Cc3ccccc3)cccc2C1=O
1.3%,-44.5%,-4.5%,.,O=C(/C=C/c1ccccc1Cl)NC1CCCCC1
1.6%,-0.5%,7.6%,.,COc1ccccc1CNC(=O)[C@H](C)NC(=O)C1CCN(C(=O)[C@@H](N)CC(C)C)CC1
0.5%,0.0%,-2.5%,0.0,Cc1c(NC(=O)c2cc(-c3ccco3)on2)c(=O)n(-c2ccccc2)n1C
-1.6%,.,-6.2%,.,Cc1cc(NC(=O)C(C)SCC(=O)Nc2ccc(Br)cc2Br)no1 (configuration not stated)
?,-9.4%,?,-6.0,CCC(CC)COC(=O)C(C#N)c1nc2ccccc2nc1N1CCOCC1 (configuration not stated)
1.6%,-0.5%,2.5%,-0.6,Cc1nnn(C23CC4CC(CC(CC(=O)Nc5cccc(F)c5)(C4)C2)C3)n1

# (further entries)
Rango-impB inh,miR-21 FLuc,Rango release inh,GLA inh pH 4.5,molecule
?,-7.9%,0.8%,-3.8,Cc1ccc2nc(N(CCN(C)C)C(=O)/C=C/c3cccs3)sc2c1
-1.7%,-21.2%,-3.8%,5.7,COc1cccc(CCNC(=O)c2ccc(C#N)cc2)c1
1.2%,-0.6%,10.8%,5.0,COCCSc1nnc(NC(=O)C2CC(=O)N(c3ccc(C)cc3)C2)s1 (configuration not stated)
-0.2%,-1.9%,1.0%,-0.8,O=C(Nc1ccccc1Cl)c1cc[n+](Cc2ccc([N+](=O)[O-])cc2)cc1
7.0%,.,13.2%,.,CCOc1ccc(NC(=O)CN(C)C(=O)c2ccccc2Cc2ccccc2)cc1OCC
-2.8%,7.2%,-0.7%,0.3,O=C(/C=C\c1ccc2c(c1)OCO2)NC1(C(=O)Nc2ccc3c(c2)OCCO3)CCCCC1
0.4%,-13.0%,2.1%,4.8,Cn1c(-c2ccc(-c3ccccc3)cc2)c[nH]c1=S
0.6%,20.8%,0.1%,-7.5,Cc1cccc(OCCC(=O)Nc2ccc(C)c(S(=O)(=O)N3CCCCC3)c2)c1
?,-33.0%,?,-11.8,O=C(N/N=C/c1ccc(N2CCOCC2)s1)c1ccccc1Cl
5.3%,-2.3%,3.3%,.,COc1ccc(CC(C)CC(=O)Nc2ccc(OC)cc2)cc1 (configuration not stated)

# Continued, overlapping the part above by three compounds.
Rango-impB inh,miR-21 FLuc,Rango release inh,GLA inh pH 4.5,molecule
0.6%,20.8%,0.1%,-7.5,Cc1cccc(OCCC(=O)Nc2ccc(C)c(S(=O)(=O)N3CCCCC3)c2)c1
?,-33.0%,?,-11.8,O=C(N/N=C/c1ccc(N2CCOCC2)s1)c1ccccc1Cl
5.3%,-2.3%,3.3%,.,COc1ccc(CC(C)CC(=O)Nc2ccc(OC)cc2)cc1 (configuration not stated)
-0.8%,1.6%,-10.6%,0.7,CCN(CC)C(=O)C(=O)c1cccn1-c1cccc(Cl)c1C#N
?,-8.0%,-23.9%,1.4,Cc1ccc(CN2C(=O)N/C(=C\c3ccc(N4CCOCC4)cc3)C2=O)cc1
?,-14.6%,-10.9%,10.5,CCC1CCCN1Cn1cnc2c([nH]c3ccc(OC)cc32)c1=O (configuration not stated)
3.0%,-7.8%,-8.7%,.,CN(C)C1(CNC(=O)C2CCN(S(=O)(=O)c3cccc(C(F)(F)F)c3)CC2)CCCCC1
0.8%,-2.8%,1.7%,-7.2,O=C(O)C1CCCN1C(=O)Nc1ccccc1 (configuration not stated)
3.0%,0.5%,23.6%,1.9,CC(C)N(Cc1ccccc1)C(=O)COC(=O)/C=C/c1cnc2ccccc2n1
-3.0%,-10.2%,-3.3%,4.4,CC(C)OC(=O)c1nnn(-c2nonc2N)c1CSc1ccccn1
5.6%,-12.6%,-0.5%,12.4,COc1ccc(Cn2c(C)nnc2-c2cnn(C)c2N)cc1
0.0%,0.6%,-2.9%,.,Cc1cccc(OCC(O)CN2CCNCC2)c1 (configuration not stated)
-1.0%,0.1%,-4.7%,6.3,O=C(Cc1c(F)cccc1Cl)N1CCOCC1

# Some of these compounds in order of heavy-atom count, descending.
Rango-impB inh,miR-21 FLuc,Rango release inh,GLA inh pH 4.5,molecule
3.0%,-7.8%,-8.7%,.,CN(C)C1(CNC(=O)C2CCN(S(=O)(=O)c3cccc(C(F)(F)F)c3)CC2)CCCCC1
3.0%,0.5%,23.6%,1.9,CC(C)N(Cc1ccccc1)C(=O)COC(=O)/C=C/c1cnc2ccccc2n1
?,-8.0%,-23.9%,1.4,Cc1ccc(CN2C(=O)N/C(=C\c3ccc(N4CCOCC4)cc3)C2=O)cc1
-3.0%,-10.2%,-3.3%,4.4,CC(C)OC(=O)c1nnn(-c2nonc2N)c1CSc1ccccn1
5.6%,-12.6%,-0.5%,12.4,COc1ccc(Cn2c(C)nnc2-c2cnn(C)c2N)cc1
0.0%,0.6%,-2.9%,.,Cc1cccc(OCC(O)CN2CCNCC2)c1 (configuration not stated)
-1.0%,0.1%,-4.7%,6.3,O=C(Cc1c(F)cccc1Cl)N1CCOCC1

# Further results follow.
Rango-impB inh,miR-21 FLuc,Rango release inh,GLA inh pH 4.5,molecule
-1.5%,2.2%,3.0%,2.3&1.3,COc1cc2c(cc1OC)C(=O)N(C)CC2
2.2%,3.8%,0.3%,-18.2,Cc1ncc(CO)c2cc(-c3nnc(Nc4ccc5c(c4)OCO5)s3)c(=O)oc12
7.3%,-9.0%,-14.0%,7.0,Cc1cccc(OCC(=O)Nc2ncn[nH]2)c1C
-2.2%,-6.9%,10.6%,7.3,O=C(CCC(=O)Nc1ccccc1)NNC(=O)c1cccs1
-0.6%,-5.6%,0.1%,1.0,CCCc1nnc(SCC(=O)N2CCCC2)n1CC1CCCO1 (configuration not stated)
?,21.8%,-23.8%,-2.8,CN1CCN(c2nc(-c3ccncc3)nc3ccccc23)CC1
-6.1%,.,-10.6%,.,C=CC[C@H](CC(=O)NCCO)C(=O)NC[C@H](OC(=O)[C@@H](CC=C)Cc1ccc(F)cc1)c1ccccc1
1.0%,1.4%,-0.5%,.,Cc1ccc(C)c(N2CCN(S(=O)(=O)c3c(C)[nH]c(C)c3C(=O)N3CCCCC3)CC2)c1
-2.0%,-5.7%,-27.2%,?,CCCC(=O)Oc1ccc2c(C)cc(=O)oc2c1
-0.4%,3.2%,2.8%,.,O=C(Nc1ccccc1)c1oc2ccccc2c1NC(=O)C1CC1
?,5.9%,?,2.2,C=C(C)CSc1nc2sc3c(c2c(=O)n1C1CCCCC1)CCN(C)C3
-0.4%,-23.0%,25.5%,.,CCOC(=O)c1sc(NC(=O)c2sc(C)nc2C)nc1C

# The list is partial (hit frequency here may not be typical).
